Source: PubChem (Vanderbilt University)
GIRK2 act = opens human GIRK2 potassium channels; P48051; HEK293-GIRK2 thallium flux, Thallos fluorescence; calls only for hits at 25 µM; 0.05% of 63,000 active; AID 1259325;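 active = among the strongest 0.2% of first-round signals and kept after retests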;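 note: first round at about 10 µM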
Target sequence (P48051 whole entry, looked up): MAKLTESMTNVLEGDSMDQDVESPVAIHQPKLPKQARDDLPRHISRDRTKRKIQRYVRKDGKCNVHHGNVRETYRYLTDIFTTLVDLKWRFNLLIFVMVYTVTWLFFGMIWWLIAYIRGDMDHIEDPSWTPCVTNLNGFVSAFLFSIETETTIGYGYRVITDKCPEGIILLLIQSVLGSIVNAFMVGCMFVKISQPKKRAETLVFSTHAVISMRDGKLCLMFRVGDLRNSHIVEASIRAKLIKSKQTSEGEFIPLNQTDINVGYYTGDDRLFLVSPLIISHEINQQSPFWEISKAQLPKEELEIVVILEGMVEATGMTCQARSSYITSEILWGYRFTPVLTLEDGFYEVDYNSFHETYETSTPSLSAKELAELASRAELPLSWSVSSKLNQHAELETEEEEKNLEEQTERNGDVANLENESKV
Calls only; i = inactive.

| Structure | GIRK2 act |
| --- | --- |
| O=C(c1cccs1)N1CCC(CSc2ccccn2)CC1 | i |
| CCOc1ccc(-c2nc(C(N)=O)c3[nH]c(=O)n(-c4cccc(OC)c4)c3n2)cc1OC | i |
| CCn1c(SCc2nc(-c3ccc(OC(C)C)cc3)oc2C)nc2ccccc2c1=O | i |
| O=C(NCCCn1ncccc1=O)c1cc(=O)c2ccccc2o1 | i |
| Cc1ccc(Cn2cc(-c3noc(C(=O)Nc4cccc(Br)c4)n3)nn2)cc1 | i |
| CCCNS(=O)(=O)CCNC(=O)c1ccc(OC)cc1 | i |
| CCCc1cnc2c(c1SCCN1CCCC1)c(=O)n(C)c(=O)n2C | i |
| O=S(=O)(Cc1ccc(Cl)cc1)c1nc2ccccc2nc1N1CCCCC1 | i |
| O=C(Nc1nnc(-c2cccs2)o1)c1ccc(Cl)cc1 | i |
| COc1cc(NC(=O)CSc2nccnc2N2CCN(c3ccccc3)CC2)cc(OC)c1 | i |
| O=c1c2ccccc2oc2nc(C3CCCCC3)n(-c3ccccc3)c(=O)c12 | i |
| COc1ccc(NC(=O)Cn2cnc3c([nH]c4ccc(C)cc43)c2=O)c(C)c1 | i |
| Cc1ccc(C)c(Cn2cccc(S(=O)(=O)N3CCC(C)CC3)c2=O)c1 | i |
| O=C(CC1Sc2ccc(C(F)(F)F)cc2NC1=O)Nc1ccc(Cl)cc1Cl (centres undefined) | i |
| CCc1ccc(C(=O)Nc2cnc(-n3ccnc3)nc2)cc1 | i |
| Cc1c(-c2nn3c(Cc4ccccc4)nnc3s2)nnn1-c1ccc(Cl)cc1 | i |
| COc1ccccc1C(O)Cn1cc(C(=O)NCc2ccco2)nn1 (centres undefined) | i |
| O=C(Cc1cccs1)Nc1cccc(-c2ccn[nH]2)c1 | i |
| O=C(NCCc1cccs1)c1ccc(Oc2nccnc2N2CCCCC2)cc1 | i |
| COc1ccc(NC(=O)C2CCCCC2)cc1N1CCCCC1=O | i |
| COc1ccc2c(c1)c(CC(=O)Nc1ccc(F)cc1)c(C)n2C(=O)c1ccc(Cl)cc1 | i |
| COc1ccccc1NC(=O)NCC1CCN(Cc2ccco2)CC1 | i |
| COc1ccc2nc(N(CCn3cccn3)C(=O)c3cccs3)sc2c1 | i |
| COc1ccccc1N1CCN(CCNC(=O)C(=O)Nc2ccc(C(C)C)cc2)CC1 | i |
| CCC(C)C(NC(=O)CCc1ccccc1OC)C(=O)Nc1nc2ccccc2[nH]1 (centres undefined) | i |

Molecules listed so far that contain fluorine, in the order listed:
| Structure | GIRK2 act |
| --- | --- |
| O=C(CC1Sc2ccc(C(F)(F)F)cc2NC1=O)Nc1ccc(Cl)cc1Cl (centres undefined) | i |
| COc1ccc2c(c1)c(CC(=O)Nc1ccc(F)cc1)c(C)n2C(=O)c1ccc(Cl)cc1 | i |

Additional records follow.
| Structure | GIRK2 act |
| --- | --- |
| O=C(Nc1cccc(-c2ccn[nH]2)c1)C1c2ccccc2Oc2ccccc21 | i |
| O=C(Cn1c(=O)nc(-c2ccccc2)c2ccccc21)Nc1ccc(Br)cc1 | i |
| COCCn1c(-c2cccs2)nc2oc3ccc(Br)cc3c(=O)c2c1=O | i |
| COc1cccc(CC(=O)Nc2ccc(Cn3cnc(C(=O)Nc4cccc(Cl)c4C)c3)cc2)c1 | i |
| O=C(C1CCN(c2ccc(-n3cccn3)nn2)CC1)N1CCN(c2ncccn2)CC1 | i |
| O=C(Nc1ccc2c(c1)C(=O)NCC2)c1cc2ccccc2o1 | i |
| CN(C(=O)Cn1cc(S(=O)(=O)N2CCCC2)ccc1=O)C1CCCCC1 | i |
| COc1ccccc1N1CCN(CCNC(=O)C(=O)Nc2c(C)cc(C)cc2C)CC1 | i |
| Cn1cccc1C(CNC(=O)NCc1cccs1)N1CCOCC1 (centres undefined) | i |
| O=C(NCCc1ccc(Cl)cc1)c1nnn(-c2ccccc2F)c1-c1cccnc1 | i |
| O=C(CSc1nc2ccccc2s1)N1CCN(Cc2nc3ccccc3[nH]2)CC1 | i |
| COc1ccc2c(c1)c(CC(=O)NCCc1ccccc1Cl)c(C)n2C(=O)c1ccc(Cl)cc1 | i |
| COc1cccc(C(=O)NC2CCN(C(=O)c3cc(-c4ccccc4)n[nH]3)CC2)c1 | i |
| C1CN(c2nc(N3CCOCC3)c3n[nH]nc3n2)CCO1 | i |
| CCOc1ccc(-c2cc3c(=O)n(Cc4nc(-c5cccc(OCC)c5)no4)ncn3n2)cc1 | i |
| COc1nn(C)cc1C(=O)Nc1nnc(SC(C)C)s1 | i |
| COc1ccc2c(=O)c(Oc3ccc(C(=O)Nc4ccccc4C(C)=O)cc3)c(C)oc2c1 | i |
| O=c1ccc2ccc(OCCOc3ccc4ccc(=O)oc4c3)cc2o1 | i |
| Cc1ccccc1C(=O)Nc1ccccc1NC(=O)Nc1ccc2c(c1)OCO2 | i |
| COC(=O)N1CCc2ccc(F)cc2C1C(=O)Nc1cc(C(F)(F)F)ccc1Cl (centres undefined) | i |
| CC(C)NC(=O)CCn1c(=O)c2ccccc2n2c(SCC(=O)NCc3ccco3)nnc12 | i |
| Cc1oc(-c2ccc(Cl)cc2[N+](=O)[O-])cc1C(=O)Nc1cccc([N+](=O)[O-])c1 | i |
| COc1ccccc1-c1c(NC(=O)c2cccs2)n(C)c2ccccc2c1=O | i |
| O=C(NCc1ccc(F)cc1)NCC(O)c1ccoc1 (centres undefined) | i |
| O=C(Nc1cccc(N2CCCS2(=O)=O)c1)c1ccccc1Cl | i |
| Cc1ccc(C)c(C(=O)NCC2CCN(S(=O)(=O)c3cccnc3)CC2)c1 | i |
| Cc1ccc(Cl)cc1NC(=O)c1coc(NC(=O)c2ccccc2)n1 | i |
| Cc1nn(C)cc1C(=O)Nc1ccc(F)c(F)c1F | i |
| CN(C)CC#CCNC(=O)C1CC(=O)N(c2ccccc2)C1 (centres undefined) | i |
| COc1ccc(CNC(=O)Cn2nc3c(c2NC(C)=O)CSC3)cc1 | i |
| Cc1ccnc(NS(=O)(=O)c2ccc(NC(=O)c3cn(C)nc3C)cc2)n1 | i |
| COc1ccc(OC)c(-c2ccc(=O)n(CCc3nc(-c4cccc(C)c4)no3)n2)c1 | i |
| COc1cccc(NC(=O)c2ccc(S(=O)(=O)N(C)C)cc2)c1 | i |
| COc1ccc(N2CC(c3nc4ccccc4n3Cc3ccc(C)cc3)CC2=O)cc1 (centres undefined) | i |
| CCOc1ccc(N(C)S(=O)(=O)c2ccsc2C(=O)Nc2cc(C)cc(C)c2)cc1 | i |
| CCOC(=O)C1CCN(C(=O)c2ccc(-n3nc(C)c(C)c3C)nc2)CC1 | i |
| O=C(NCC1CCN(Cc2ccco2)CC1)C1(c2ccccc2)CCOCC1 | i |
| Cn1nc(CNC(=O)C2(c3ccccc3)CCOCC2)cc1-c1ccncc1 | i |
| COc1ccc(OC)c(S(=O)(=O)Nc2ccc3c(c2)CCCN3S(C)(=O)=O)c1 | i |
| Cc1nnsc1C(=O)NCC1CCN(C)CC1 | i |
| CCOC(=O)O[C@]1(C(=O)OCCl)CC[C@H]2[C@@H]3CCC4=CC(=O)C=C[C@]4(C)[C@H]3[C@@H](O)C[C@@]21C | i |
| COC1CCN(C(=O)/C=C/c2ccccc2Cl)CC1 | i |
| COc1ccc(CNC(=O)Cn2c(=O)nc(-c3ccccc3)c3cc(Cl)ccc32)cc1 | i |
| CCC(=O)NC1CCCC(OC(=O)Nc2ccccc2)C1 (centres undefined) | i |
| O=C(NCCC(O)C1CC1)Nc1ccccc1Cl (centres undefined) | i |
| COc1ccc(NC(=O)c2cn(Cc3ccc(NC(=O)C4CCCCC4)cc3)cn2)cc1OC | i |
| Cc1nc(-n2nnc(C(=O)N3CCN(c4ccccc4O)CC3)c2C)sc1C | i |
| Cc1ccc(-c2ccc3nn(CC(=O)OC(C)(C)C)c(=O)n3n2)cc1C | i |
| COc1cc(Cc2nccc3cc(OC)c(OC)cc23)c(C2OC(=O)c3ccccc32)cc1OC (centres undefined) | i |
| O=C(Cc1ccc(F)cc1)Nc1ccccc1NC(=O)c1ccccc1C(F)(F)F | i |

Further structures follow:
compound,GIRK2 act
CSc1ccc(NC(=O)COc2ccc(Cl)cc2Cl)nn1,i
COc1cccc(-n2nnc(-c3nc(-c4ccccc4F)no3)c2N)c1,i
CSc1ccccc1NC(=O)C1CCCN(c2cc(-n3cccn3)ncn2)C1 (centres undefined),i
Cc1cc(C)c(C)c(S(=O)(=O)NCc2ccc(C(=O)NCC3CCCO3)cc2)c1C (centres undefined),i
C[C@@H](Oc1cc(-n2cnc3ccc(OC[C@@H](O)CO)cc32)sc1C(N)=O)c1ccccc1Cl,i
CC(C)NC(=O)CCn1c(=O)c2ccccc2n2c(SCC(=O)NCc3ccc(F)cc3)nnc12,i
O=c1c2ccccc2n(Cc2nc(-c3ccc(Br)cc3)no2)c(=O)n1CC1CCCO1 (centres undefined),i
CCOc1ccccc1NC(=O)NCC1CCN(Cc2ccsc2)CC1,i
Cc1ccc(Cl)cc1NC(=O)C(C)Cn1nc(C)c(C)c1C (centres undefined),i
COc1ccc(C)cc1S(=O)(=O)NCCNc1ccc(C)nn1,i

Exported with each value named: 2 of the compounds above.
> Cc1nn(C)cc1C(=O)Nc1ccc(F)c(F)c1F
  GIRK2 act: i

> CN(C)CC#CCNC(=O)C1CC(=O)N(c2ccccc2)C1 (centres undefined)
  GIRK2 act: i

(more compounds)
compound,GIRK2 act
Cc1[nH]c(=O)n(C)c(=O)c1CCC(=O)Nc1ccc(S(=O)(=O)N2CCC(C)CC2)cc1,i
COc1ccc(Cl)cc1NC(=O)c1nnn(-c2ccc(C)cc2)n1,i
O=S(=O)(C1CC1)N1CCN(Cc2ccsc2)CC1,i
O=C(O)c1cn(Cc2ccccn2)nc1S(=O)(=O)N1CCN(c2ccccc2)CC1,i
O=C(Nc1ccc2c(c1)OCO2)c1ccc(S(=O)(=O)N2CCCCCC2)cc1,i
COc1ccc(CCC(=O)NCCn2ncc3c(NCc4ccco4)ncnc32)cc1,i
COc1ccccc1N1CCN(c2ccnc(SCC(=O)NCc3ccc(SC)cc3)n2)CC1,i
O=C(Nc1nc2c(s1)CN(C(=O)Nc1ccc3c(c1)OCO3)CC2)c1ccccn1,i
CCOC(=O)N1CCc2c(sc(NC(=O)c3cccc(OC)c3)c2-c2nc3ccccc3s2)C1,i
Cc1cccc(NC(=O)CN2CC(c3nc(-c4ncccn4)no3)C2)c1C,i

A portion from the list above, for reference:
compound,GIRK2 act
COc1ccc(CCC(=O)NCCn2ncc3c(NCc4ccco4)ncnc32)cc1,i
COc1ccccc1N1CCN(c2ccnc(SCC(=O)NCc3ccc(SC)cc3)n2)CC1,i
O=C(Nc1nc2c(s1)CN(C(=O)Nc1ccc3c(c1)OCO3)CC2)c1ccccn1,i
CCOC(=O)N1CCc2c(sc(NC(=O)c3cccc(OC)c3)c2-c2nc3ccccc3s2)C1,i
Cc1cccc(NC(=O)CN2CC(c3nc(-c4ncccn4)no3)C2)c1C,i

Next entries.
compound,GIRK2 act
Cc1cc(C)c(C)c(Cn2c(CN3CCOCC3)nc3ccccc32)c1C,i
COc1cc(Br)cc2cc(C(=O)Nc3ccc(C)cc3)c(=O)oc12,i
CC(=O)c1ccc(N2CCN(C(=O)c3cnn4c3OCCC4)CC2)cc1,i
Cc1cc(NS(=O)(=O)c2ccc(NC(=O)c3coc(NC(=O)c4cc(C)on4)n3)cc2)nc(C)n1,i
CCC(C)COC(=O)C(C#N)c1nc2ccccc2nc1N1CC(C)CC(C)C1 (centres undefined),i
COc1cccc(-c2csc(-n3nc(C)cc3NC(=O)Cc3ccc([N+](=O)[O-])cc3)n2)c1,i
O=C(NCc1nc(-c2ccccc2)no1)c1ccc2nsnc2c1,i
Cc1cc(-n2cc(C(=O)N3CCC(NC(=O)c4cccc(Cl)c4)CC3)nn2)ccc1F,i
O=C(Cn1cnc2ccccc21)N1CCCC(c2nnc(-c3cccs3)o2)C1 (centres undefined),i
Cc1cc(NC(=O)C(=O)NCC(O)(c2ccccc2)C2CC2)no1 (centres undefined),i
C=C(C)CN1CCN(c2cc(CCC)nc3c4c(C)cc(C)nc4nn23)CC1,i
O=C(Cn1c(=O)n(CCCCC(=O)Nc2ccccc2)c(=O)c2ccccc21)NCCc1ccccc1,i
CCc1nc(-c2ccc(-n3ccc(C(=O)N4CCN(C5CCCCC5)CC4)n3)cc2)no1,i
O=C(NCC1(O)CCOc2ccccc21)Nc1ccccc1C(F)(F)F (centres undefined),i
Cc1cc(C)c(C(=O)NCC2(CO)CC2)c(C)c1,i
COc1coc(C(=O)N2CCN(S(C)(=O)=O)CC2)cc1=O,i
Cc1ccc2c(Nc3cccc(C#N)c3)c(C(=O)N3CCC(C)CC3)cnc2n1,i
CC(C)OC(=O)C(C)(C)Oc1ccc(C(=O)c2ccc(Cl)cc2)cc1,i
O=C(NCCn1ncccc1=O)NC1CCCCC1,i
Cc1cn2c3c(=O)n(C)c(=O)n(C)c3nc2n1CCN1CCC(C(N)=O)CC1,i
Cc1ccc(-n2ccnc(SCC(=O)c3ccccc3)c2=O)cc1,i
COc1ccc(Cl)cc1NS(=O)(=O)CCOc1ccccc1,i
COc1ccc(SCC2CCN(S(=O)(=O)c3ccccc3)CC2)cc1,i
O=C(Cn1nc2c3c4c(sc3ncn2c1=O)CCCC4)N1CCc2ccccc2C1,i
COc1ccc(C2CCN(S(=O)(=O)c3ccc(F)c(Cl)c3)C2)cc1 (centres undefined),i
COc1ccc2c(c1)c(CC(=O)NCCc1ccc(Cl)cc1)c(C)n2C(=O)c1ccc(Cl)cc1,i
COc1cc(-c2noc(C3CCCN(S(=O)(=O)c4ccc(Cl)cc4)C3)n2)cc(OC)c1OC (centres undefined),i
COc1ccc(OC)c(-c2cc(C(=O)Nc3ccc4c(c3)N(C(=O)C3CC3)CC4)n(C)n2)c1,i
COc1ccc(/C=C/c2nn3c(-c4ccccc4Cl)nnc3s2)cc1OC,i
c1ccc2[nH]c(CN3CCN(CCN4CCCC4)CC3)nc2c1,i
COC(=O)CC1C(=O)NCCN1C(=O)c1cc2ccccc2oc1=O (centres undefined),i
O=C(Nc1nc2c(s1)COCC2)c1cc(C2CC2)on1,i
COc1cccc(NCCN2N=C(C)Cn3c2nc2c3c(=O)n(C)c(=O)n2C)c1,i
CN(C)CCCN1c2ccccc2CCc2ccc(Cl)cc21,i

Molecules listed so far with a nitro group on carbon (two):
compound,GIRK2 act
Cc1oc(-c2ccc(Cl)cc2[N+](=O)[O-])cc1C(=O)Nc1cccc([N+](=O)[O-])c1,i
COc1cccc(-c2csc(-n3nc(C)cc3NC(=O)Cc3ccc([N+](=O)[O-])cc3)n2)c1,i

Some of the compounds tested; the hit share may differ from the screen's.
